GLA inh pH 4.5 = qHTS Assay for Inhibitors of Human alpha-Galactosidase at pH 4.5 | 230,000 tested, under 10 active | activity change, negative = inhibition, % at 105 µM | purified enzyme, 4-MU-alpha-Gal fluorescence, pH 4.5 | Alpha-galactosidase A (Homo sapiens), P06280; inconclusive = small, poorly fitted or top-dose-only inhibition, or a rising curve; inactive = flat fitted curve, though single readings scatter; no compound was filed as active;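 also: 0% = full activity with enzyme and -100% = basal without enzyme; dose as in the result columns while the protocol names 77 µM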
miR-21 reporter = qHTS Assay for Modulators of miRNAs and/orActivators of miR-21. HeLa miR-21 FLuc reporter, luciferase, 48 h. Potency, µM (series often up to 38.3 µM), for inactives: at the highest dose reporter change, positive = more light. 340,000 tested, under 10 active; active = well fitted rising curve with a large enough effect; inconclusive = small, poorly fitted or top-dose-only effect; inactive = no such curve, though single readings can be large or run the other way;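 also: % of control where 0% means no effect; miR-21 action dims this reporter so a rising signal means less miR-21 action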
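Using DMEM plus 10% FBS, HeLa miR-21-FLuc cells are incubated with test compounds (final up to about 40uM) for 48 hours; firefly luciferase signal is then imaged following reagent-mediated lysis.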
Rango dissoc inh = qHTS Assay for Inhibitors of RanGTP induced Rango (Ran-regulated importin-beta cargo) - Importin beta complex dissociation | Snurportin-1 (Homo sapiens) + GTP-binding nuclear protein Ran (Homo sapiens) + Importin … | Biochemical FRET Rango-importin beta, RanGTP-induced dissociation | Potency, µM (doses to about 46.1 µM), for inactives: at the highest dose activity change, negative = inhibition | hit rate 0.071% among 340,000 | AID 540253, 2011; active means falling FRET ratio curve, often poorly fitted, with flat reads before Ran was added; inconclusive means other falling curves, or compound fluorescence or quenching; inactive means flat or rising ratio curve;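 also: potency is read from the fitted curve at half-maximal effect; % of control where 0% means no effect; nearly all actives have a fitted effect of over 45% in size; -100% = wells without RanGTP and RCC1; the record marks most hits as doubtful in a second field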
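Compounds sat 5 min at room temperature with 0.1 uM Rango biosensor plus 0.25 uM importin beta, then FRET pre-read. RanGTP-RCC1 (0.6 uM Ran, 2mM GTP, 0.2 uM RCC1) added for 45 min, and the CFP/YFP post-read measured blocked complex dissociation.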
Rango complex inh = qHTS Assay for Inhibitors of Rango (Ran-regulated importin-beta cargo) - Importin beta complex formation; Rango CFP/YFP FRET sensor + importin beta, 45 min; Potency, µM (top dose mostly 92.2 µM), inactives show top-dose inhibition of complex formation; hit rate 0.031% among 340,000; active = rising FRET ratio curve, often small or poorly fitted; inconclusive = mostly compound fluorescence or quenching in the first reads; inactive = flat curves in all reads;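 also: potency is read from the fitted curve at half-maximal effect; 0% = DMSO wells and 100% = buffer wells lacking importin beta; nearly all actives have a fitted effect of over 15% in size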
Target sequence (Q14974 whole entry, looked up): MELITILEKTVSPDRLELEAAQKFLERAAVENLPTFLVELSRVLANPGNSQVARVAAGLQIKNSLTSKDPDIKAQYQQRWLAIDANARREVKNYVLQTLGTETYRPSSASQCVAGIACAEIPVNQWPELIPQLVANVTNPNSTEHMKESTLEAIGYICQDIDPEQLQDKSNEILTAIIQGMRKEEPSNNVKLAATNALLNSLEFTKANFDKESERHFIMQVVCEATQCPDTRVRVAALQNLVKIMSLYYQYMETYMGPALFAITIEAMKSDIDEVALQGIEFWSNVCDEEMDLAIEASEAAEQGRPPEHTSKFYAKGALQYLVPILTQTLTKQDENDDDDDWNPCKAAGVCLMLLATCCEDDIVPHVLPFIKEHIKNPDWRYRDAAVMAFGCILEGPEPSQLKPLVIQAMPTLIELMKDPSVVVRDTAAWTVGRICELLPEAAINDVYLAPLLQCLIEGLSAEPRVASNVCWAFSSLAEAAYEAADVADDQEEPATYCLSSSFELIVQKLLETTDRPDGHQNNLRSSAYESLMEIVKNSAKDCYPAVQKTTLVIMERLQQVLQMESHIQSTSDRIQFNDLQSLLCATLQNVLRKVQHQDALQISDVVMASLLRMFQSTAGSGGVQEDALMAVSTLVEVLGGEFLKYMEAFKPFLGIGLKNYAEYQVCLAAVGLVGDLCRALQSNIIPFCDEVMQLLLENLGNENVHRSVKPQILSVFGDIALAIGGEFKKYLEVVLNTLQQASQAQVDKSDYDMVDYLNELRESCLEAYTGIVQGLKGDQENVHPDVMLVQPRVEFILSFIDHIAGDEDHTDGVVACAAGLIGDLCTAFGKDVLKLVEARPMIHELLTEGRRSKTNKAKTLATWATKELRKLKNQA
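FRET biosensor Rango (snurportin 1 IBB between N-terminal EYFP and C-terminal Cerulean), 50 nM in PBS/1 mM DTT/0.02% Tween-20/0.1% BSA, preincubated 5 min RT with compound; 0.125 microM importin beta added, 45 min RT, CFP/YFP FRET ratio read.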
* hit, by the source's call; ? = inconclusive; nt = no result given. A portion of the library; count on the stated rates, not on these rows.

The first three compounds, to show the layout:
Compound	GLA inh pH 4.5	Rango complex inh	miR-21 reporter	Rango dissoc inh
COc1cc(NC(=O)c2c(F)cccc2F)nc(OC)n1	-22	3.7%	-35%	1%
O=C(Nc1cccc(C(=O)N2CCOCC2)c1)c1cccnc1	-2	-0.6%	5%	-2%
Clc1ccc(OCc2cn3cccnc3n2)c2ncccc12	-5	-1.8%	-63%	3%

The list itself, from the first entry:
Compound	GLA inh pH 4.5	Rango complex inh	miR-21 reporter	Rango dissoc inh
COc1cc(NC(=O)c2c(F)cccc2F)nc(OC)n1	-22	3.7%	-35%	1%
O=C(Nc1cccc(C(=O)N2CCOCC2)c1)c1cccnc1	-2	-0.6%	5%	-2%
Clc1ccc(OCc2cn3cccnc3n2)c2ncccc12	-5	-1.8%	-63%	3%
N#Cc1cccc(CN2CCCN(Cc3ccc(F)cc3)S2(=O)=O)c1	nt	3.4%	-1%	-12%
Nc1ccccc1-c1ccc([N+](=O)[O-])cc1	nt	-0.2%	nt	9%
COC(=O)[C@H]1C[C@H](C(=O)O)[C@@H](C)C1(C)C	nt	-0.5%	nt	-1%
COc1ccccc1NS(=O)(=O)c1cccc(NS(=O)(=O)c2cc(C(=O)O)ccc2OC)c1	nt	0.0%	nt	-12%
O=C(Nc1cc(Cl)ccc1N1CCOCC1)c1ccc(F)c(S(=O)(=O)N2CCOCC2)c1	nt	1.7%	nt	2%
CC(=O)N1CCN(C(=S)NC(=O)c2ccc(S(=O)(=O)N3CCOCC3)cc2)CC1	0	1.4%	-4%	3%
O=S1(=O)CCC(S(=O)(=O)N2CCCCCC2)C1 (stereo not drawn)	13	-6.4%	-2%	0%
CCCC(c1nnnn1CCc1ccccc1)N1CCN(C2CCCC2)CC1 (stereo not drawn)	-3	-0.6%	-2%	-8%
CCn1cc([N+](=O)[O-])c(C(=O)Nc2nc3ccc(OC)cc3s2)n1	2	8.9%	-36%	10%
Cc1ccc(-c2csc(N3N=C(c4ccccc4)/C(=C\c4ccc(N(C)C)cc4)C3=O)n2)cc1	-7	nt	-3%	nt
CC(C)(C)n1cnc2cc(NS(=O)(=O)c3ccc(Br)cc3)ccc21	-5	0.3%	11%	-1%
CCOc1ccc(C2CC(c3ccc(F)cc3)Nc3nc(N)nn32)cc1 (stereo not drawn)	0	-2.7%	-5%	-12%
O=C(CN1C(=O)C2CCCCC2C1=O)Nc1ccccc1N1CCCC1 (stereo not drawn)	nt	2.8%	nt	12%
Cc1ccc2c(c1)CCCN2C(=O)C1CCCO1 (stereo not drawn)	8	-0.8%	0%	0%
CCn1c(=O)cc(OCC(=O)Nc2cc(C)ccn2)c2ccccc21	-15	3.3%	-18%	-1%
COc1nc(C)ccc1-c1noc(-c2cccnc2)n1	nt	7.2%	-38%	?
CC(C)CN1CCN(C(=O)CCc2nnc(Cc3c[nH]c4ccccc34)o2)[C@@H](C)C1=O	nt	-2.1%	-17%	-1%
O=C(CN1C(=O)NC(Cc2ccccc2)C1=O)Nc1ccccc1F (stereo not drawn)	nt	-1.5%	nt	-6%
CCCCCCNc1nc(-c2ccc(OC)cc2)c(CCC(=O)O)s1	-23	1.2%	-7%	-2%
CCOC(=O)c1c(S(=O)(=O)N2CCN(Cc3ccccc3)CC2)c(C)n(C)c1C	nt	0.1%	-10%	-5%
COc1ccc(S(=O)(=O)N2CCOCC2)cc1NC(=O)CC(C)c1ccccc1 (stereo not drawn)	nt	-1.0%	nt	-23%
CCOC(=O)C1=NOC(CN(c2ccccc2)S(=O)(=O)c2ccc(Cl)cc2)C1 (stereo not drawn)	1	4.4%	0%	5%
Cc1ccc(CNCc2ccccc2Cl)cc1	-3	-2.1%	-19%	-9%
CCc1c(C)[nH]c2ccc(OC)cc2c1=S	3	-3.2%	0%	-17%
O=C(N/N=C/CCc1ccccc1)c1ccc(CN2c3cccc4cccc(c34)S2(=O)=O)cc1	2	1.5%	-6%	-13%
CCN(C[C@H]1N[C@@](CC)(C(=O)OC)[C@H]2C(=O)N(Cc3ccccc3)C(=O)[C@@H]12)C(=O)c1ccc(F)cc1	nt	1.0%	nt	14%
Cc1[nH]n(-c2ccccc2)c(=O)c1S(=O)(=O)c1ccccc1	4	-0.9%	7%	7%
COc1ccc(CNC(=O)CN2C(=O)C3C4C=CC(C4)C3C2=O)cc1 (stereo not drawn)	6	-1.2%	-1%	-3%
O=C(COc1ccccc1)NC1CCN(Cc2ccccc2)CC1	-3	-4.4%	-1%	-14%
O=C(c1cc(COc2ccc(F)cc2Cl)on1)N1CCN(C2CCCCC2)C(=O)C1	nt	-5.4%	5%	18%
COc1cccc(C2NC(CC(C)C)(C(=O)O)C3C(=O)N(Cc4ccccc4)C(=O)C23)c1O (stereo not drawn)	-5	?	-3%	-9%
CC1CCN(CCNC(=O)C2CCCN(c3ncnc4c3nc3n4CCCCC3)C2)CC1 (stereo not drawn)	nt	5.8%	0%	-12%
FC(F)(F)c1cccc(CNC2CCN(Cc3ccccc3)CC2)c1	nt	0.8%	-7%	-8%
CC(CN1CCCCC1)OC(=O)c1ccccc1Cl (stereo not drawn)	-3	0.1%	1%	-10%
O=C(C1=C[C@@H](c2ccc(Br)cc2)C[C@@H](OCCCCO)O1)N1CCOCC1	1	0.9%	0%	-1%
CCOc1ccc(Cl)cc1S(=O)(=O)N1CCC(C(=O)NCC2CCCO2)CC1 (stereo not drawn)	nt	1.1%	-4%	-1%
COc1ccc(C2C(C(=O)NCC3CCCO3)CCC(=O)N2c2ccc3c(c2)OCO3)cc1 (stereo not drawn)	0	-2.3%	-1%	0%
Cc1ccc(-c2ocnc2C(=O)Nc2nc(C)cs2)cc1	nt	-2.8%	-47%	9%
Nc1nc(Cl)cc(Oc2ccc([N+](=O)[O-])cc2)n1	nt	0.3%	-6%	-5%
CCN(CC(=O)NCc1ccc(Cl)cc1)C(=O)c1cc2ccccc2o1	nt	-1.6%	-6%	?
CN1CCc2c(sc3c2C(=O)NC(c2cccc(OC(=O)c4cccs4)c2)N3)C1 (stereo not drawn)	6	?	-68%	?
O=C(Cn1cnc2c(nnn2Cc2ccc(F)cc2)c1=O)Nc1ccc2c(c1)OCCO2	nt	?	0%	?
O=C(CCNC(=O)c1ccc(Br)cc1)Nc1ccc(S(=O)(=O)Nc2ncccn2)cc1	nt	-2.2%	nt	-10%
COc1ccc(-c2noc(CCC(=O)N3CCN(c4ccccc4Br)CC3)n2)cc1	nt	0.3%	nt	-2%
CC12CCC(C(NC(=S)NN)C1=O)C2(C)C (stereo not drawn)	nt	-0.1%	nt	-3%
OC(CN1CCOCC1)Cn1c2ccccc2c2ccccc21 (stereo not drawn)	nt	-0.1%	2%	12%
O=C(CC1OC(=O)c2ccccc21)Nc1cccc(S(=O)(=O)N2CCCCCC2)c1 (stereo not drawn)	nt	3.4%	-1%	-5%
CCS(=O)(=O)c1ccc(O)c(N2C(=O)C3C4C=CC(C4)C3C2=O)c1 (stereo not drawn)	-7	-2.0%	0%	1%
O=C(c1c(Cl)nc2sccn12)N1CCCc2ccccc21	2	-4.5%	-3%	8%
O=C1CCC(=O)N1c1cccc(-c2nc3ccccc3o2)c1	1	-1.5%	-3%	3%
O=C(Nc1ccc(Cl)cc1)C1CCCN(C2=NS(=O)(=O)c3ccccc32)C1 (stereo not drawn)	nt	0.2%	nt	8%
Cc1cccc(Nc2nc(CC(=O)O)cs2)c1	-1	?	-39%	-20%
CC1(C)Cc2cccc(OCC(=O)Nc3ccccc3F)c2O1	nt	0.9%	nt	-11%

(next part)
Compound	GLA inh pH 4.5	Rango complex inh	miR-21 reporter	Rango dissoc inh
Cc1ccc(NC(=O)c2ccc(S(=O)(=O)NCc3cccnc3)cc2)cc1C	nt	2.3%	3%	-1%
COc1cc(C2c3c([nH]c(=O)[nH]c3=O)Nc3ccc4ccccc4c32)cc(OC)c1OC (stereo not drawn)	-1	?	2%	2%
O=C(NC(=S)Nc1cccc(-c2ccc(CO)o2)c1)c1cccs1	8	3.6%	-30%	11%
COC(=O)CSC1=C(C#N)C(=O)NC(c2ccccc2)S1 (stereo not drawn)	-5	0.6%	4%	4%
COC(=O)c1ccc(NC(=O)c2ccc3c(c2)OCO3)cc1	-3	-5.1%	-47%	-14%
Cc1ccc(C2=NN(C(=S)Nc3ccccc3)C(c3ccco3)C2)cc1 (stereo not drawn)	-3	-0.8%	-53%	-6%
O=C(Cc1csc(NC(=O)Nc2cccc(Cl)c2)n1)NCc1cccnc1	nt	-0.1%	nt	18%
CC(C)NC(=O)c1ccc(CN2CCc3ccccc3C2)cc1	nt	4.8%	-4%	2%
Cc1cc(S(=O)(=O)N2CCOCC2)c(C)s1	nt	3.9%	1%	0%
O=C(c1cc(COc2cccc(C(F)(F)F)c2)on1)N1CCC(Oc2cccnc2)CC1	nt	-1.0%	20%	2%
COc1cc(/C=C(\C#N)C(=O)NCC2CCCO2)ccc1OCC(=O)O (stereo not drawn)	-14	-2.6%	-3%	1%
CC(=O)c1cccc(NC(=O)NCCc2c[nH]c3ccccc23)c1	-5	-4.4%	12%	-18%
COc1ccc(C(=O)c2coc3ccc(O)c(CN4CCOCC4)c23)cc1	-2	-3.2%	4%	-3%
Cc1ccccc1CNS(=O)(=O)c1c(C(=O)N2CCCC2)c(C)n(C)c1C	nt	-0.1%	-2%	0%
Cc1nc(SCC(=O)N2CCOCC2)c2ccsc2n1	0	0.1%	10%	1%
COc1ccc(C(=O)CCc2ccccc2)c(O)c1	nt	-0.1%	nt	-15%
O=c1c2cnn(-c3ccccc3)c2nc(-c2cccs2)n1-c1ccc(Cl)cc1	-2	-2.4%	-17%	1%
CC(C)(C)c1cc(CN(CCO)CCO)c(O)c(C(C)(C)C)c1	-10	-1.8%	-16%	10%
Cc1ccc(NC(=O)C2(c3ccccc3)CC2(Cl)Cl)cc1C (stereo not drawn)	8	-0.1%	-41%	31%
COC(=O)Cn1c(=NC(=O)c2ccc(Cl)s2)sc2cc(C)ccc21	0	-4.5%	-19%	-1%
NC(=NC1CCCCC1)c1ccc(Cl)cc1	-5	-1.2%	0%	-6%
CC[C@]12c3[nH]c4ccc(OC)cc4c3CCN1C(=O)C(CC(=O)NCCc1ccccn1)C[C@@H]2C(=O)N1CCN(C(=O)c2ccco2)CC1 (stereo partly drawn)	nt	-0.9%	nt	-8%
C=CC1=C2C=C(C3CC3)N(CCCN(CC)CC)C=C2C(=O)C(C)(OC(=O)c2ccco2)C1=O (stereo not drawn)	5	?	nt	-23%
Fc1cccc(NCCc2c[nH]c3ccccc23)n1	nt	-4.3%	-29%	17%
COc1ccc(CN2CCNC(=O)C2CC(=O)N(C)Cc2nccn2C)cc1OC (stereo not drawn)	7	0.4%	0%	0%
COc1ccc(-c2cc(=Nc3ccc(C(=O)O)cc3)c3cc(C)ccc3o2)cc1	0	1.0%	-68%	-16%

Screening results: PubChem, National Center for Advancing Translational Sciences (NCATS)
